HIV Env fusion: inhibitors of HIV Env-mediated cell fusion. HeLa-JRFL Env/CEM21 cell fusion, luciferase. inhibition, % at 12.3 µM. 360,000 tested, 1.1% active;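 active = mean replicate inhibition score of at least 50 and every replicate individually at or above 50; inconclusive = only one of the two criteria met; inactive = mean below 50 and not all replicates reaching 50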;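 also: 0% = plate neutral controls and 100% = maraviroc near 300 nM; one replicate is shown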
An asterisk follows results filed as active; ? = inconclusive; [ ] = another dose, or the depositor's remark. A portion of the library; rates above refer to the full screens.

HIV Env fusion	smiles
9[16.7 µM]	CO[C@H]1CC[C@@H]2CCN(C)C(=O)C[C@H](c3ccccc3)CN(C)C(=O)c3cccc(C#N)c3OC[C@@H]1O2
-4[16.7 µM]	CCC(=O)Nc1ccc2c(c1)OC[C@@H](C)N(CC1CCCCC1)C[C@@H](C)[C@@H](OC)CN(C)C2=O
20	O=C(N[C@H](C(=O)N1CCC[C@H]1C(=O)NCCc1ccccc1Cl)c1ccccc1)C1CCCC1
-25[16.7 µM]	C[C@H]1CN([C@@H](C)CO)C(=O)c2cccc(NC(=O)Nc3ccccc3)c2O[C@@H]1CN(C)Cc1ccccc1
-1[16.7 µM]	CO[C@H]1CN(C)C(=O)c2cc(NC(=O)c3nc4ccccc4s3)ccc2OC[C@H](C)N(Cc2cncnc2)C[C@H]1C
6[16.7 µM]	CN1CCN(C(=O)C[C@H]2CC[C@H]3[C@@H](COC[C@H](O)CN3C(=O)Nc3ccc(F)cc3)O2)CC1
-5[16.7 µM]	C[C@@H]1CN([C@@H](C)CO)C(=O)c2cc(NC(=O)CCN3CCOCC3)ccc2O[C@H]1CN(C)Cc1ccncc1
-8[16.7 µM]	CN1C(=O)c2cc(NC(=O)Nc3ccccc3Cl)ccc2OC[C@H]2O[C@H](CC(=O)NCCCN3CCOCC3)CC[C@H]21
-9[16.7 µM]	C[C@@H]1CN([C@@H](C)CO)C(=O)c2ccccc2-c2ccccc2CO[C@@H]1CN(C)C(=O)C1CC1
10	O=C(/C=C(\Nc1cc(Cl)c(Cl)c(Cl)c1)c1ccccc1)c1ccccc1
-4[16.7 µM]	CC(C)NC(=O)N(C)C[C@@H]1OCCCC[C@H](C)Oc2ccc(NC(=O)Nc3ccccc3)cc2C(=O)N([C@H](C)CO)C[C@@H]1C
-9	Cc1ccc(CN2CC(N3CCC[C@@H]3C)CS2(=O)=O)cc1 (stereo not given in full)
-1[16.7 µM]	O=C(Cc1ccccn1)N[C@H]1CC[C@H](CCn2cc(-c3ccccc3)nn2)O[C@@H]1CO
4	Cc1cc(NCCc2c[nH]c3ccccc23)ccc1Nc1cccnc1
-21	CCCC[C@@H]1CNC(=O)C(=O)N1CCCCC1CCCCC1
15[16.7 µM]	O=C(C[C@H]1C[C@@H]2c3cc(NS(=O)(=O)c4ccc(F)cc4)ccc3O[C@@H]2[C@@H](CO)O1)N1CCc2ccccc2C1
-6[16.7 µM]	CCCNC(=O)C[C@H]1C[C@@H]2c3cc(NC(=O)NC4CCCCC4)ccc3O[C@@H]2[C@@H](CO)O1
-15[16.7 µM]	CO[C@@H]1CN(C)C(=O)c2ccc(NC(C)=O)cc2OC[C@H](C)N(C(=O)CN(C)C)C[C@H]1C
13[16.7 µM]	O=C(NC[C@@H]1CC[C@@H]2[C@@H](CN2Cc2nccs2)O1)C1CCC1
5	CCCN1CCCCC(NC(=O)c2ccc(F)c(F)c2)C1=O (stereo not given)
-15[16.7 µM]	O=C(C[C@@H]1CC[C@H]2[C@@H](COC[C@H](O)CN2C(=O)Nc2ccc(Cl)cc2)O1)NCC1CCCCC1
9[16.7 µM]	O=C(NCC[C@@H]1CC[C@H](NC(=O)C2CCOCC2)[C@@H](CO)O1)c1cc(Cl)cc(Cl)c1
-3[16.7 µM]	C/C=C/c1cnc2c(c1)C(=O)N([C@@H](C)CO)C[C@H](C)[C@@H](CN(C)Cc1ccccc1F)O2
7[16.7 µM]	C[C@@H]1CN([C@@H](C)CO)C(=O)c2c(c3ccccc3n2C)-c2ccccc2CO[C@@H]1CN(C)C(=O)Cc1ccccc1
23[16.7 µM]	CC=Cc1ccc2n(c1=O)C[C@H]1[C@H](CO)[C@@H](C(=O)N3CCc4ccccc4C3)N(C(=O)C3CC3)[C@@H]21 (mixture of isomers)
-14	O=C(NCc1ccccc1)[C@@H]1CCCN1C(=O)[C@H]1CCCN1C(=O)c1ccc(F)c(C(F)(F)F)c1
-1[16.7 µM]	COc1ccc2c3c(n(C)c2c1)[C@H](CO)N(C(=O)Nc1ccc(F)cc1)CC31CCN(C(=O)c2cccnc2)CC1
9[16.7 µM]	C[C@@H]1CN([C@@H](C)CO)C(=O)c2cc(C#Cc3cccc(F)c3)cnc2O[C@@H]1CN(C)CC1CC1
-8[16.7 µM]	COc1ccc(NC(=O)N(C)C[C@@H]2Oc3cc(-c4cccc(C(=O)N(C)C)c4)ccc3S(=O)(=O)N([C@H](C)CO)C[C@H]2C)cc1
-16	Nc1ncnc2c1ncn2[C@@H]1O[C@H](C(=O)N[C@@H](CCc2ccccc2)C(=O)NCC(=O)N2CCOCC2)[C@@H](O)[C@H]1O
-1[16.7 µM]	CC(C)NC(=O)N(C)C[C@H]1OCCCC[C@H](C)Oc2ccc(NC(=O)c3ccncc3)cc2C(=O)N([C@@H](C)CO)C[C@@H]1C
-38[16.7 µM]	COc1cccc(NC(=O)N[C@H]2CC[C@H](CC(=O)N3CCCCC3)O[C@@H]2CO)c1
-18[16.7 µM]	C[C@@H]1CCCCO[C@@H](CN(C)Cc2ccncc2)[C@@H](C)CN([C@@H](C)CO)C(=O)c2cc(NC(=O)Nc3ccccc3)ccc2O1
13[16.7 µM]	CO[C@H]1CN(C)C(=O)c2cc(NC(=O)NC(C)C)ccc2OC[C@H](C)N(Cc2cncnc2)C[C@H]1C
6	COc1ccc(C=CC(=O)c2c(N)n(C)c(=O)n(C)c2=O)cc1
-96[16.7 µM]	C[C@@H]1CN([C@@H](C)CO)C(=O)Cc2cc(NC(=O)Nc3ccc(F)cc3)ccc2O[C@@H]1CN(C)Cc1ccc(C(=O)Nc2ccccc2N)cc1
2[16.7 µM]	CNC(=O)C[C@@H]1CC[C@@H]2[C@H](COC[C@H](O)CN2Cc2ccc(Cl)c(Cl)c2)O1
-7[16.7 µM]	COc1ccc(CN2C[C@@H](O)COC[C@H]3O[C@H](CC(=O)N(C)C)CC[C@@H]32)cc1
-13[16.7 µM]	O=C(NC[C@H]1CC[C@@H]2[C@@H](CN2S(=O)(=O)c2ccccc2[N+](=O)[O-])O1)C1CCC1
-7[16.7 µM]	O=C(C[C@H]1C[C@@H]2c3cc(NC(=O)C4CCOCC4)ccc3O[C@@H]2[C@H](CO)O1)NCc1ccc2c(c1)OCO2
0[16.7 µM]	CC(C)NC(=O)N1[C@H](C(=O)NC2CCC2)[C@@H](CO)[C@@H]2Cn3c(ccc(-c4ccccc4F)c3=O)[C@@H]21
-19[16.7 µM]	O=C(C[C@@H]1C[C@@H]2c3cc(NC(=O)c4cccnc4)ccc3O[C@@H]2[C@H](CO)O1)NCC(F)(F)F
2[16.7 µM]	CC(C)NC(=O)Nc1ccc2c(c1)CC(=O)N([C@H](C)CO)C[C@@H](C)[C@H](CN(C)C(=O)NC1CCCCC1)O2
4	O=C(C(=O)N1CCC(CNS(=O)(=O)c2ccc(C(F)(F)F)cc2)CC1)c1cccs1
-17[16.7 µM]	CO[C@H]1CN(C)C(=O)c2cc(NC(=O)NC(C)C)ccc2OC[C@H](C)N(CC2CC2)C[C@H]1C
20[16.7 µM]	CO[C@H]1CN(C)C(=O)c2cccc(C#N)c2OCC[C@@H]2CC[C@@H](OC)[C@H](CN(C)C(=O)[C@H]1C)O2
-9	COCc1[nH]nc2c1C(c1cccc(C(F)(F)F)c1)N(c1ccc(OC)cc1)C2=O (stereo not given)
70*[16.7 µM]	COc1ccc2c3c(n(C)c2c1)[C@@H](CO)N(C(=O)C1CCOCC1)CC31CCN(Cc2cccc(F)c2)CC1
11[16.7 µM]	O=C(C[C@H]1C=C[C@@H](NC(=O)c2ccncc2)[C@H](CO)O1)NCC1CC1
11	O=C(Nc1cccc([N+](=O)[O-])c1)OCc1ccc2c(c1)OCO2

A run of entries of the results above:
HIV Env fusion	smiles
-14	O=C(NCc1ccccc1)[C@@H]1CCCN1C(=O)[C@H]1CCCN1C(=O)c1ccc(F)c(C(F)(F)F)c1
-1[16.7 µM]	COc1ccc2c3c(n(C)c2c1)[C@H](CO)N(C(=O)Nc1ccc(F)cc1)CC31CCN(C(=O)c2cccnc2)CC1
9[16.7 µM]	C[C@@H]1CN([C@@H](C)CO)C(=O)c2cc(C#Cc3cccc(F)c3)cnc2O[C@@H]1CN(C)CC1CC1
-8[16.7 µM]	COc1ccc(NC(=O)N(C)C[C@@H]2Oc3cc(-c4cccc(C(=O)N(C)C)c4)ccc3S(=O)(=O)N([C@H](C)CO)C[C@H]2C)cc1
-16	Nc1ncnc2c1ncn2[C@@H]1O[C@H](C(=O)N[C@@H](CCc2ccccc2)C(=O)NCC(=O)N2CCOCC2)[C@@H](O)[C@H]1O
-1[16.7 µM]	CC(C)NC(=O)N(C)C[C@H]1OCCCC[C@H](C)Oc2ccc(NC(=O)c3ccncc3)cc2C(=O)N([C@@H](C)CO)C[C@@H]1C
-38[16.7 µM]	COc1cccc(NC(=O)N[C@H]2CC[C@H](CC(=O)N3CCCCC3)O[C@@H]2CO)c1
-18[16.7 µM]	C[C@@H]1CCCCO[C@@H](CN(C)Cc2ccncc2)[C@@H](C)CN([C@@H](C)CO)C(=O)c2cc(NC(=O)Nc3ccccc3)ccc2O1
13[16.7 µM]	CO[C@H]1CN(C)C(=O)c2cc(NC(=O)NC(C)C)ccc2OC[C@H](C)N(Cc2cncnc2)C[C@H]1C
6	COc1ccc(C=CC(=O)c2c(N)n(C)c(=O)n(C)c2=O)cc1

A section taken from the entries so far:
HIV Env fusion	smiles
11[16.7 µM]	O=C(C[C@H]1C=C[C@@H](NC(=O)c2ccncc2)[C@H](CO)O1)NCC1CC1
11	O=C(Nc1cccc([N+](=O)[O-])c1)OCc1ccc2c(c1)OCO2

(list continues)
HIV Env fusion	smiles
48[16.7 µM]	COc1ccc2c3c([nH]c2c1)[C@@H](CO)N(C(=O)c1cccnc1)CC31CCN(Cc2ccccc2)CC1
0	CC1(C)OC(=O)C2=C(CC(CCc3ccccc3)OC2c2cccc(C(F)(F)F)c2)O1 (stereo not given)
-4[16.7 µM]	CO[C@@H]1CN(C)C(=O)c2cc(NS(=O)(=O)c3ccc(C)cc3)ccc2OC[C@H](C)N(C(=O)NC(C)C)C[C@H]1C
-11[16.7 µM]	COc1ccc2c3c([nH]c2c1)[C@H](CO)N(C(=O)CN(C)C)CC31CCN(C(=O)c2cccnc2)CC1
7[16.7 µM]	COc1ccc(CNC(=O)C[C@@H]2CC[C@H]3[C@H](COc4ccc(NC(=O)C(C)C)cc4C(=O)N3C)O2)cc1
3[16.7 µM]	CC(C)(C)[S@@](=O)N1Cc2cc(C(=O)N3CCCCC3)nc(-c3cccc(-c4ccc(F)cc4)c3)c2[C@H]1CCO
17[16.7 µM]	C[C@@H]1CN([C@H](C)CO)C(=O)c2cccc(NS(C)(=O)=O)c2O[C@@H]1CN(C)S(=O)(=O)c1ccc(F)cc1
-6[16.7 µM]	CCNC(=O)C[C@H]1CC[C@@H]2[C@H](COC[C@H](O)CN2C(=O)Nc2ccc(C(F)(F)F)cc2)O1
-2[16.7 µM]	COCC(=O)Nc1ccc2c(c1)[C@@H]1C[C@@H](CC(=O)NCc3ccccc3F)O[C@H](CO)[C@@H]1O2
4	O=C1NC(Cc2ccc(O)cc2)c2nc3ccccc3c(=O)n2-c2ccccc21 (stereo not given)
10[16.7 µM]	C[C@@H]1CN([C@H](C)CO)C(=O)c2cccc(NC(=O)Nc3ccccc3)c2O[C@H]1CN(C)Cc1ccccc1
12[16.7 µM]	CN1C(=O)c2cc(NS(C)(=O)=O)ccc2OC[C@H]2O[C@H](CC(=O)NC3CCCCC3)CC[C@@H]21
8[16.7 µM]	CO[C@H]1CC[C@H]2CCOc3c(C#N)cccc3C(=O)N(C)C[C@@H](c3ccccc3)CC(=O)N(C)C[C@H]1O2
-7[16.7 µM]	CCCNC(=O)N1CC2(CCN(S(=O)(=O)c3ccc(OC)cc3)CC2)c2c(n(C)c3cc(OC)ccc23)[C@@H]1CO
-8[16.7 µM]	CN1C(=O)c2cc(NS(=O)(=O)CC(F)(F)F)ccc2OC[C@H]2O[C@@H](CC(=O)NCc3ccc(Cl)c(Cl)c3)CC[C@@H]21
-16	COCCCNC(=O)C[C@H]1C[C@@]2(C(=O)OC)C(=C[C@H](C(C)C)O[C@@H]2C2CC2)N(Cc2ccccc2)C1=O
8[16.7 µM]	COCC(=O)Nc1ccc2c(c1)C(=O)N(C)C[C@H](OC)[C@@H](C)CN(Cc1cc(F)ccc1F)[C@H](C)CO2
-8[16.7 µM]	COC(=O)C[C@@H]1CC[C@H]2[C@H](COc3ccc(NC(=O)c4ccccc4F)cc3C(=O)N2C)O1
5[16.7 µM]	O=C(CCN1CCCCC1)N[C@@H]1CC[C@H](CC(=O)N2CCC(Cc3ccccc3)CC2)O[C@H]1CO
-1[16.7 µM]	CN(C)CC(=O)Nc1ccc2c(c1)[C@@H]1C[C@@H](CC(=O)N3CCCCC3)O[C@H](CO)[C@@H]1O2
2[16.7 µM]	C[C@H]1CN([C@@H](C)CO)C(=O)Cc2cc(NS(=O)(=O)c3ccc(Cl)cc3)ccc2O[C@@H]1CN(C)C(=O)Nc1ccc2c(c1)OCO2
5[16.7 µM]	CO[C@@H]1CN(C)C(=O)c2cc(NS(=O)(=O)c3cccc(F)c3)ccc2OC[C@H](C)NC[C@@H]1C
14	COC(=O)C1=C(C)N(Cc2ccccc2C(F)(F)F)C(=NCC2CC2)NC1c1cccc(F)c1 (stereo not given)
-142[16.7 µM]	O=C1C=CCCN1S(=O)(=O)/C=C/c1ccccc1
-8[16.7 µM]	C[C@@H]1CN([C@H](C)CO)C(=O)c2cccc(NC(=O)C3CCCCC3)c2O[C@H]1CN(C)S(=O)(=O)c1cn(C)cn1
4[16.7 µM]	CO[C@H]1CN(C)C(=O)c2cc(NS(C)(=O)=O)ccc2OC[C@H](C)N(C(=O)NC(C)C)C[C@H]1C
1[16.7 µM]	COC(=O)C[C@@H]1C[C@@H]2c3cc(NC(=O)c4ccc5c(c4)OCO5)ccc3O[C@@H]2[C@@H](CO)O1
28[16.7 µM]	COCC(=O)N[C@@H]1C=C[C@@H](CC(=O)N2CCCCC2)O[C@@H]1CO
?	O=S(=O)(c1ccc(F)cc1)N1CCCc2nc(-c3ccccc3)ccc21
-29[16.7 µM]	Cc1noc(C)c1NC(=O)N(C)C[C@@H]1Oc2ccc(NS(=O)(=O)c3c(C)noc3C)cc2C(=O)N([C@H](C)CO)C[C@@H]1C
-5[16.7 µM]	CCCNC(=O)Nc1ccc2c(c1)OC[C@@H](C)N(CC1CCCC1)C[C@H](C)[C@H](OC)CN(C)C2=O
10[16.7 µM]	O=C(C[C@@H]1CC[C@H]2[C@@H](COC[C@@H](O)CN2CC2CCOCC2)O1)NCc1ccc(Cl)cc1

Source: PubChem
